# gsp ag: activates gsp, the McCune-Albright syndrome mutation; gsp mutant cells, cAMP HTRF, 30 min; control for the full effect not named in the record; Potency, µM (doses to about 76.9 µM), inactives show at the highest dose activation (cAMP increase), most hits filed as activators; actives 0.13% (n = 340,000); AID 624287; active = well fitted activation curve with a large enough effect; inconclusive = small, poorly fitted or top-dose-only effect, or another doubt; inactive = no such curve, though single readings can be large or run the other way; cell line not stated here;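 also: phosphodiesterase inhibitor Ro 20-1724 added with compounds to block cAMP breakdown; potency is read from the fitted curve at half-maximal effect; nearly all actives have a fitted effect of over 60% in size; about a fifth of the inactives were tested at one dose only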
#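 Cells stably selected in G418 were plated at 2000/well, grown 16-24 hr, then given compounds in DMSO with the PDE inhibitor […] (300 uM solution added) for 30 min at 37C; cAMP was read by HTRF.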
# TRPML1 ag: agonists of human TRPML1 channel. Q9GZU1. TRPML1-expressing cells, Ca2+ dye fluorescence, FDSS; host cell line not named in the record; reference of the full effect not given here. activation, % (no concentration beside the values). actives 0.12% (n = 410,000). AID 624414; in the data active = activation above about 50%; inconclusive = about 30% to 50%; inactive = below about 30%; also: 0% is about no effect; the text of the record puts the active cut at 80%
# Target sequence (Q9GZU1 whole entry, looked up): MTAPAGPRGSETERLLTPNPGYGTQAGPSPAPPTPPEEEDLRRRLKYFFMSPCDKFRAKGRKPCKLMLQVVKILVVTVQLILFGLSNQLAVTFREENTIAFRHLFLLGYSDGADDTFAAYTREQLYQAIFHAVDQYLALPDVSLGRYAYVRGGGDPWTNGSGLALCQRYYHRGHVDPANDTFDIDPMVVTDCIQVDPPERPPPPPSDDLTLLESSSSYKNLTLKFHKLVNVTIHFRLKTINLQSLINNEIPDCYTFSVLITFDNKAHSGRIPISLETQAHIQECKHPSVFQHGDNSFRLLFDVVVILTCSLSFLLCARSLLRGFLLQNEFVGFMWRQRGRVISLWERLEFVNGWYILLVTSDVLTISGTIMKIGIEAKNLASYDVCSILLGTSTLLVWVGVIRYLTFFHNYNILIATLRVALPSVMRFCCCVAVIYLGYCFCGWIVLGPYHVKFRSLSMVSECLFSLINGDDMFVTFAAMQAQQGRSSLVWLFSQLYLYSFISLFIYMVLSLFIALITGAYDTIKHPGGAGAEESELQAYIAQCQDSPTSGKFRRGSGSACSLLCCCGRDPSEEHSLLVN
#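 Cells: TRPML1-DL, 1X Tet inducer, ~16 h at 37 degrees C/5% CO2. Dye: ABD Ca8 no-wash + quencher, 45-90 min RT. Read: 10 s baseline, compound add, 110 s agonist phase; 54-4 EC80 (4uM final), 110 s antagonist phase.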
# Menin MLL FP FL: inhibitors of human menin-MLL interaction, wild-type MLL peptide. Fluorescence polarization, fluorescein-MLL peptide displacement from menin. FP activity change, % at 61.4 µM. 290,000 tested, under 10 active. AID 1766; inconclusive = falling polarisation curve, or a change in total fluorescence; inactive = total fluorescence flat and polarisation flat or rising; no compound was filed as active; the % refers to the polarisation; negative = inhibition;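 also: % of control where 0% means no effect; inhibitors lower the polarisation; unlabelled MLL peptide was the positive control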
# gsp antagonist: antagonizes gsp, the McCune-Albright syndrome mutation | actives 0.4% (n = 340,000) | gsp-mutant cells, cAMP HTRF, 30 min; control for the full effect not named in the record | Potency, µM (doses to about 76.9 µM), without a hit: at the highest dose activity change, negative = inhibition, usual class: inhibitors | AID 624288; active = falling curve of any shape with a large fitted effect; inconclusive = falling curve, mostly with a smaller effect; inactive = flat or rising curve; cell line not stated here;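 also: intracellular cAMP measured with PDE inhibitor Ro 20-1724 present during compound exposure; potency is read from the fitted curve at half-maximal effect; % is scaled to controls: 0 for no effect and ±100 for the full control effect; nearly all actives have a fitted effect of over 65% in size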
#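 HTRF cAMP measurement after 30 min RT detection following 30 min, 37C compound treatment alongside […] (added as 300 uM solution) in G418-selected cells seeded at 2000/well and grown 16–24 h.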
# ClpP mod: qHTS Assay for Activators of ClpP; purified B. subtilis ClpP, FRET peptide cleavage, 20 min; Potency, µM (doses to about 57.5 µM), inactives show at the top dose activity change, negative = active; actives 1.9% (n = 340,000); AID 651965, 2013; active = well fitted falling curve with a large enough effect; inconclusive = small, poorly fitted or top-dose-only effect; inactive = no such curve, though single readings can be large or run the other way; also: potency is read from the fitted curve at half-maximal effect; the source files actives as falling curves though it sought activators and does not explain the sign; nearly all actives have a fitted effect of over 65% in size; many hits overshoot -100%
# Target sequence (P80244 whole entry, looked up): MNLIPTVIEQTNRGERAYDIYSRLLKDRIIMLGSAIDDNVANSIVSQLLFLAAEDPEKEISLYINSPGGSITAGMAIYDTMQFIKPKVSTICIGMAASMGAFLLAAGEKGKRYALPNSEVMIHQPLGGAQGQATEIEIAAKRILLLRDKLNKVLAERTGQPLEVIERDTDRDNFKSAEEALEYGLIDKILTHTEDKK
#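 Buffer: 100 mM Tris/HCl pH8, 100 mM KCl, 0.05% low protease BSA, 2.5% glycerol, 0.01% Tween-20. ClpP 10 microg/mL final; 20 min RT; delta FRET normalized to ADEP and DMSO controls.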
# TRPML1 blocker: blocks the human TRPML1 channel; TRPML1-inducible cells, Ca2+ dye fluorescence, FDSS; hits give low values; inhibition of EC80 agonist-evoked calcium signal; activity change, negative = inhibition, % (no concentration beside the values); actives 0.02% (n = 390,000); in the data active means activity change below about -50%; inconclusive means about -30% to -50%; inactive means above about -30%;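 also: stimulus is agonist 54-4 at its EC80 concentration; % is scaled to controls: 0 for no effect and ±100 for the full control effect; compound concentration not given in the record; the text of the record puts the active cut at -80%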
#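 Calcium fluorescence in TRPML1-DL cells induced overnight with Tet: a 110 s read after compound pin addition, then a 110 s antagonist read after challenge with 54-4 at 4 uM final (EC80).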
# Starred values were filed as active, the others as inactive; ? = inconclusive; · = no result given; [ ] = dose if it differs, or a comment.
SMILES,gsp ag,TRPML1 ag,Menin MLL FP FL,gsp antagonist,ClpP mod,TRPML1 blocker
O=C(CNc1cc(S(=O)(=O)N2CCOCC2)ccc1NCC1CCCO1)Nc1ccccc1F (configuration not stated),-22.2%,0.8,·,-4.7%,-1.5%,3.4
O=C(CCc1ccccc1)NCc1ccncc1,25.8%,0.2,-1.3,8.0%,-1.6%,1.4
Cc1ccccc1NC(=S)NCCC(c1ccccc1)c1ccccc1,-28.3%,-0.9,0.7,-3.1%,12.6µM*,-3.2
COc1ccc(CCN(Cc2cccs2)S(=O)(=O)c2ccc(S(=O)(=O)N3CCCCCC3)cc2)cc1OC,10.9%,-0.3,1.3,8.7%,1.0%,17.2
COc1ccc(OC)c(-c2nnc(-c3ccc(C)o3)o2)c1,-36.2%[inhibitor],-0.8,7.7,-5.9%,?,-6.1
Cc1ccc(SCC(=O)Nc2ccc3c(c2)OCCO3)cc1,5.1%,1.3,4.2,8.1%,-1.9%,19.0
CN(C)CCNc1ccc(CO)c2sc3ccc(O)cc3c(=O)c12,5.6%,0.4,·,-32.9%,-5.4%,14.1
C/C(=N\NC(=S)NCCc1ccccc1)c1ccc(C)cc1,?,0.9,8.4,-9.3%,-1.9%,-10.7
CC(CCc1ccccc1)NC(=O)C1CCCN(c2nnc(-n3cccc3)s2)C1 (configuration not stated),-75.5%[inhibitor],-0.9,-2.2,-27.4%,0.0%,12.6
COc1ccc(CNC(=O)CN(Cc2ccco2)C(=O)CNS(=O)(=O)c2ccc(F)cc2)cc1,13.1%[15.4 µM],0.3,·,-9.1%,·,4.0
CN(C(=O)c1cc(S(=O)(=O)N2CCCCC2)c[nH]1)C1CCCCC1,-37.8%[inhibitor],-0.5,0.0,2.7%,-1.2%,0.7
Cc1cccc(CCNS(=O)(=O)c2ccc(S(=O)(=O)NC3CCCC3)cc2)c1,-14.3%,0.7,3.8,-3.1%,-1.3%,-12.1
Cc1noc(C)c1C1(O)CCCCCCCCCCC1,-39.2%,0.7,2.7,-1.9%,-2.2%,-14.3
O=C(c1cccc(C(F)(F)F)c1)N1CCc2c([nH]c3ccccc23)C1C(F)(F)F (configuration not stated),?,-1.2,3.0,12.9%,·,-3.8
COc1ccc(C(=O)Oc2ccc3c(C)cc(=O)oc3c2C(C)=O)cc1,-3.3%[15.4 µM],-0.3,1.9,5.6%,0.8%,-16.5
CC(=O)c1ccc(NC(=O)CS(=O)(=O)c2cn(CC(=O)N3CCOCC3)c3ccccc23)cc1,15.2%,-0.5,-3.5,-2.1%,-0.6%,2.2
CCCSc1ccc([C@@H]2[C@H]3C(=O)N(CC)C(=O)[C@H]3[C@]3(C(=O)OC)CCCCN23)cc1OC,·,0.8,·,-3.2%,-4.5%,56.5
Cc1cc(NC(=O)C2CC2)ccc1NC(=O)c1cccs1,-15.9%,0.8,1.9,1.5%,·,-1.1
Cc1cc(C(=O)COC(=O)CC2Sc3ccccc3NC2=O)c(C)n1-c1ccccc1 (configuration not stated),4.7%[15.4 µM],0.7,1.4,-13.1%,·,16.6
CCN(CC)CC(O)COc1ccc2c(c1)c(C(C)=O)c(C)n2-c1ccccc1 (configuration not stated),-11.8%,2.2,-0.2,9.0%,-1.9%,-7.2
O=S(=O)(Nc1ccc(S(=O)(=O)N2CCOCC2)cc1)c1ccc(Br)cc1,10.6%[15.4 µM],-0.7,-1.9,·,·,-5.9
CCN(CC)S(=O)(=O)c1cc(NC(=O)C(C)N2CCc3ccccc32)ccc1C (configuration not stated),18.0%,1.0,4.5,-20.0%,·,-8.7
CCOc1cc(N2CCOCC2)c(OCC)cc1NC(=O)c1cccc(S(=O)(=O)N2CC(C)OC(C)C2)c1 (configuration not stated),-33.5%[inhibitor],0.0,·,·,2.9%,-15.3
C=CCOC(=O)C1=C(C)OC(N)=C(C#N)C1c1ccc(F)cc1 (configuration not stated),-18.2%,4.5,0.1,-14.9%,-15.1%,15.4
C=CCn1c(N)cc(=O)nc1SCC(=O)Nc1ccc2ccccc2c1,?,1.0,2.6,3.6%,-2.0%,3.2
CCOc1ccc(-c2nnn(CC(=O)N3CCN(c4ccc(F)cc4)CC3)n2)cc1OCC,-18.7%,0.9,4.6,7.9%,-1.6%,-8.5
COc1ccc(N2CCN(C(=O)COC(=O)CCS(=O)(=O)c3ccc(C)cc3)CC2)cc1,11.0%,0.0,·,-11.7%,-2.5%,-3.0
Cc1ccc2c(c1)N(C(=O)CCC(=O)NCCN1CCOCC1)CCO2,?,-0.1,-2.2,10.4%,2.3%,8.0
COc1ccc(CNS(=O)(=O)CCNC(=O)c2cccc(OC)c2)cc1,-4.3%,-0.5,·,1.5%,-1.0%,-0.9
COc1ccccc1NC(=O)Cc1c(F)cccc1Cl,-3.0%,0.0,2.5,3.7%,23.0%,7.0
CCC(C)NC(=O)c1ccc2c(c1)N(Cc1ccccc1)C(=O)CS2 (configuration not stated),-12.8%[15.4 µM],-0.1,1.6,-14.1%,-6.7%,57.1
O=C(NCCCn1ccnc1)C1c2ccccc2Oc2ccccc21,-3.1%,-1.2,4.2,-2.4%,-0.7%,11.0
CC(C)(C)OC(=O)[C@H](Cc1ccccc1)NC(=O)c1nc[nH]c1C(=O)NC1CCN(C(=O)OC(C)(C)C)CC1,?,0.3,-1.6,-14.7%,3.6%,2.2
CCN(c1ccccc1)S(=O)(=O)c1ccc(N2CCN(c3ccc(OC)cc3)CC2)nc1,-47.1%[inhibitor],-0.8,·,-3.0%,-1.2%,-8.1
CCc1cccc(C)c1NC(=O)C(CC)Sc1nncn2c1cc1occc12 (configuration not stated),·,1.5,·,·,10.3%,13.6
COCC(=O)N/N=C\c1cccc(OC)c1OC/C=C/c1ccccc1,19.2%,2.5,-0.7,1.3%,-23.8%,1.7
COC(/C=C/Nc1ccc(Br)cc1)=C(C#N)C#N,16.0%,-0.2,4.3,-9.5%,-2.3%,7.9
C=CCN1CC(=O)N2C(c3ccccc3)c3[nH]c4ccccc4c3C[C@H]2C1=O (some centres not stated),6.5%,3.0,-2.9,-6.7%,-3.3%,1.6
CCc1nc2ccc(C(=O)Nc3ccc(NC(C)=O)cc3)cn2c1N(C)CCCc1ccccc1,·,-0.6,·,·,1.2%,7.4
COc1cc(C(=O)NCC(=O)N/N=C/c2ccco2)cc(OC)c1OC,-17.7%,-0.5,0.9,6.4%,-3.7%,-0.2
O=C(Nc1ccccc1N1CCOCC1)c1cnccn1,-34.9%[inhibitor],-0.1,-1.5,0.2%,1.6%,-5.9
CS(=O)(=O)c1ccc(Cl)c(NC(=O)Cc2c(F)cccc2Cl)c1,4.2%,-0.4,0.3,4.6%,-1.4%,2.2
COCCCn1c(C23CC4CC(CC(C4)C2)C3)n[nH]c1=S,1.6%,·,-0.5,-5.5%,-2.2%,·
CCN1CCN(C(=O)c2ccc(CS(=O)(=O)Cc3ccccc3Cl)o2)CC1,-55.8%[inhibitor],-0.6,·,·,-1.4%,-7.1
COc1ccc(-c2cn3c(n2)sc2cc(C(=O)NCc4cccc(F)c4)ccc23)cc1,·,-0.1,·,·,?,-13.7
Cc1ccccc1-c1nc(C#N)c(NCc2ccco2)o1,3.3%,-0.5,0.4,1.8%,·,8.0
S=C(c1ccc(-c2ccc(Cl)cc2Cl)o1)N1CCCC1,?,-1.2,9.1,-4.9%,3.0%,2.8
Cc1ccc(CN2CCC[C@]3(N[C@H](c4ccc(C)cc4)[C@@H]4C(=O)N(Cc5ccccc5)C(=O)[C@@H]43)C2=O)cc1,7.9%,0.2,·,·,-1.1%,3.5
CN(N=Nc1cccc([N+](=O)[O-])c1)c1ccccc1,?,1.1,-12.9,-1.5%,·,25.6
CC(=O)N1[C@H](Cc2ccccc2)C=C[C@]1(C)C(=O)NCCc1c[nH]c2ccccc12,·,0.2,-2.8,-1.3%,-5.2%,-12.3
# Additional compounds follow:
SMILES,gsp ag,TRPML1 ag,Menin MLL FP FL,gsp antagonist,ClpP mod,TRPML1 blocker
Cc1cc(NC(=O)CN(C)S(=O)(=O)c2cccc(Cl)c2)no1,-21.2%[15.4 µM],0.0,1.1,·,·,9.8
CCOc1ccc(C(=O)Nc2c(C)nc(Nc3ccccc3)nc2Nc2ccccc2)cc1OCC,·,0.3,·,·,-18.4%,-12.2
CCOc1ccc(C2Nc3ccc4ccccc4c3-c3c2c(=O)oc2ccccc32)cc1 (configuration not stated),-33.2%[inhibitor],-0.7,·,-0.2%,74.1%,-1.0
CCOC1(OCC)N=C(N)C2(C#N)C(c3cccc(C)c3)C12C#N (configuration not stated),-23.1%,0.2,4.1,8.8%,1.1%,15.5
Cc1ccccc1-c1nc(CS(=O)(=O)CC(=O)NCc2ccc3c(c2)OCO3)c(C)o1,-24.8%,0.3,0.5,-14.4%,1.9%,-5.2
COc1ccccc1CC(=O)Nc1cc(C)on1,?,-0.3,·,·,0.3%,20.6
CC1(C(=O)NS(=O)(=O)c2ccc(Cl)cc2)CCN1C(=O)C1CC1 (configuration not stated),·,1.2,·,·,-1.1%,84.1
O=C(CN1CCN(S(=O)(=O)c2ccccc2F)CC1)NCC1(N2CCOCC2)CCCCC1,-33.8%,-0.2,·,-10.8%,1.2%,-7.0
O=C1/C(=C/c2ccco2)Oc2c1ccc(O)c2CN1CCCCC1,-27.6%[15.4 µM],17.5,?,-36.1%,1.4%,10.9
Cc1cccc(NCC(=O)NNC(=S)Nc2ccccc2)c1,1.0%[15.4 µM],-0.1,-3.0,-3.0%,-1.1%,46.2
Cc1nc2nc(NC(=O)c3ccc(Cl)cc3)[nH]n2c(=O)c1Cc1ccccc1,·,-0.3,·,·,0.6%,13.3
Cc1ccc(-n2c(SCC(=O)N3CCCCC3)nc(O)cc2=O)cc1,0.8%[15.4 µM],-0.4,1.6,-30.5%,0.2%,24.4
COc1cc([C@@H]2[C@H]3CNCC=C3C(C#N)=C(N)C2(C#N)C#N)ccc1OC(C)C,6.1%,-0.1,?,-10.4%[15.4 µM],-4.0%,9.8
O=C(NCCNc1ccc(Cl)cc1[N+](=O)[O-])c1ccccc1F,-7.3%,·,-5.5,-26.7%,1.7%,·
O=C(Nc1c(F)cccc1F)c1ccc(-n2cncn2)nc1,-22.7%,-0.8,3.5,6.6%,-0.3%,65.8
CC1(C)CC2CC(C)(CN2C(=O)Cc2ccccc2)C1 (configuration not stated),6.1%,-0.3,-0.3,-12.7%,1.0%,2.2
Cc1c(/C=C/C(=O)c2ccccc2)cnn1C,1.8%,-0.1,1.8,1.8%,1.5%,9.8
O=c1nc(N2CCOCC2)ccn1-c1nc(-c2ccccc2)oc1-c1ccccc1,8.1%,-0.2,0.9,-9.1%,-4.4%,5.9
Cn1c(SCc2ccc(F)cc2)nc2ccc(C(=O)NCc3ccc(F)cc3)cc21,·,0.7,·,·,-0.9%,-11.5

# Compound activity (PubChem BioAssay)
